Rce1 inh = yeast Rce1p protease inhibitors, primary screen, biochemical, fluorescence, cell-free homogeneous | CAAX prenyl protease 2 (Saccharomyces cerevisiae (strain ATCC 204508 / S288c)), Q03530 | yeast membranes, quenched prenylated peptide cleavage fluorescence | calls only | actives 0.27% (n = 290,000);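 active means fall in fluorescence gain of 50% or more versus controls, with final raw signal at or below 3038400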;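 further: plate controls were neutral control wells for no effect and wells lacking membranes for full effect; tested at 10 µM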
Target sequence (Q03530 whole entry, looked up): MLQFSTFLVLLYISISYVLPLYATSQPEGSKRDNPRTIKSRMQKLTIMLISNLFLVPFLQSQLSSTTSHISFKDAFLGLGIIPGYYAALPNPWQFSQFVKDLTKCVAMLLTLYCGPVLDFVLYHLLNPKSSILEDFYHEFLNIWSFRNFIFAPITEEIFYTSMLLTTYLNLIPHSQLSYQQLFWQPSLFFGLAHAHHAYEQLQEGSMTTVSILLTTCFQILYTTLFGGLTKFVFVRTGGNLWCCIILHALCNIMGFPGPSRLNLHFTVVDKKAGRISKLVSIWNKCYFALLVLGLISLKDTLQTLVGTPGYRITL
CSC inhib = cancer stem cell viability inhibitors, primary screen, luminescence; cancer stem cell-like cells viability; inhibition, % at 7.5 µM; actives 1.1% (n = 300,000); AID 2717, 2010;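 active means mean at 75% or more and at least half the replicates too; tested in HMLE shEcad cells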;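 further: 0% = median of negative and 100% = median of positive control wells; the first replicate is given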
PABP FP inh = PABP poly(A) RNA binding inhibitors, primary screen, biochemical, fluorescence polarization, uHTS; Polyadenylate-binding protein 1 (Homo sapiens), P11940; inhibition, % at 35 µM; actives 1% (n = 290,000); AID 2014, 2009;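 active means 50% or more with normal probe brightness, or confirmed in later tests; about a fifth of its hits are not listed in these tables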;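 further: calls also rest on retests at 20 µM and on dose response follow-up; controls were probe without protein and protein plus probe with vehicle; some compounds called inactive have numbers as strong as hits; many hits fall short of the cut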
Target sequence (P11940 whole entry, looked up): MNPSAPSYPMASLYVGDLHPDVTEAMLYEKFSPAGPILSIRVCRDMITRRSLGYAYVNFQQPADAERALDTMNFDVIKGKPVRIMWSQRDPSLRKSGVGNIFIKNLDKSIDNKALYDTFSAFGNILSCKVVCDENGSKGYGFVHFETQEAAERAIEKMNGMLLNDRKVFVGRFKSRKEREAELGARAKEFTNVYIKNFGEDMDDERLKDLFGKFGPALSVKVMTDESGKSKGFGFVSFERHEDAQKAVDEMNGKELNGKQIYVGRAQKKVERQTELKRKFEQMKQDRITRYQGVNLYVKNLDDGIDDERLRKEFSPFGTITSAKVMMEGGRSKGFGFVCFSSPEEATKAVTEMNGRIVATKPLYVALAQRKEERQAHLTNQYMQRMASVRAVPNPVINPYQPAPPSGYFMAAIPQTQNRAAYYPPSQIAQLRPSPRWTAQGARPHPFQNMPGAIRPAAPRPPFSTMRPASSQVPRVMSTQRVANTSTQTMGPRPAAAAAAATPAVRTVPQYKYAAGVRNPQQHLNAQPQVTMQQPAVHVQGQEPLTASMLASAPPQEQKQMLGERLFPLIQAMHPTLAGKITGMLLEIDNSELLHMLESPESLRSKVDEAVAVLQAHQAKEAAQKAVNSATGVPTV
UUG fidelity = modulators of yeast start codon fidelity, primary screen, whole organism, S. cerevisiae, single point, plate reader | S. cerevisiae UUG-firefly luciferase reporter, luminescence/redox ratio | activity score, % at 18.7 µM | actives 0.13% (n = 350,000);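 active means replicate mean at a twofold rise or more, about +100% in these data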;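 further: firefly luciferase made from a UUG start codon reports start codon fidelity; reporter light over untreated wells divided by growth signal over untreated wells; some hits fall short of that in this replicate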
HIV Env fusion = inhibitors of HIV-1 Env-driven cell-cell fusion, primary screen, HeLa-JRFL effector, CEM21 target cells, luciferase; inhibition, % at 12.3 µM; AID 651610, 2012; actives 1.1% (n = 360,000);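 active means mean replicate inhibition score of at least 50 and every replicate individually at or above 50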;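 further: 0% = plate neutral controls and 100% = maraviroc near 300 nM; one replicate is shown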
MT1-MMP act inh = blockers of MT1-MMP proenzyme processing, primary screen, HT1080 RFP-PRO-GFP cells, GFP/RFP fluorescence. actives 0.061% (n = 360,000). Matrix metalloproteinase-14 (Homo sapiens), P50281. GFP/RFP ratio change, % at 20 µM. GFP/RFP ratio fluorescence, overnight; percent of plate control window, DMSO zero;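 active means GFP/RFP ratio change of at least 30% with cell ATP level not reduced by more than half and red fluorescence within 50% of control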; further: strong numbers were not always called active
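Material: RFP-PRO-GFP reporter HT1080 cells. Dosing: single-point 20 µM compound, 1% DMSO. Controls: DMSO and RFP-L50D-GFP cell wells. Timing: cells overnight before dosing, compound overnight, 37 °C, 5% CO2. Measure: GFP/RFP fluorescence ratio.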
eIF4H inh = human eIF4H binding inhibitors, primary screen, translation initiation inhibitor project, biochemical, uHTS, fluorescence polarization; Eukaryotic translation initiation factor 4H (Homo sapiens), Q15056; eIF4H fluorescence polarization binding assay; inhibition, % at 35 µM; actives 0.94% (n = 290,000);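 active means 50% or more with normal probe brightness, or confirmed in later tests; about a fifth of its hits are not listed in these tables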;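 further: calls also rest on retests at 20 µM and on dose response follow-up; 0% = protein and probe with vehicle and 100% = probe without protein; strong numbers were not always called active; many hits fall short of the cut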
eIF4H inh retest = second read-out of eIF4H inh, no call of its own (marks repeat the call); inhibition, %; compound at 20 µM; confirmation average;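 mean of two retest wells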
PABP FP inh retest = second read-out of PABP FP inh, no call of its own (marks repeat the call); inhibition, %; compound at 20 µM; confirmation repeats;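 mean of two retest wells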
MT1-MMP act inh RFP = further read-out of MT1-MMP act inh, marked with its call; RFP signal change, %; measured here: RFP expression control read;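 0 = vehicle wells; hits needed this value within 50% of zero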
An asterisk follows results filed as active; i = inactive; / = no result given; + = active, no number.

SMILES | Rce1 inh | CSC inhib | PABP FP inh | UUG fidelity | HIV Env fusion | MT1-MMP act inh | MT1-MMP act inh RFP | eIF4H inh | others
COc1cc2c(cc1OC)CN(c1ncccc1[N+](=O)[O-])CC2 | i | -9 | 8 | / | -52 | 3 | 1 | -6
O=[N+]([O-])c1ccc(CN2CC(N3CCC(Cc4ccccc4)CC3)CS2(=O)=O)cc1 (stereo not given) | / | / | / | -12 | 26 | 2 | -26 | /
CCOCc1nnc(NC(=O)COc2ccc3c(c2)OCO3)s1 | / | 20 | 11 | -18 | 4 | -2 | 0 | -6
COCCn1c(CN2CCC(Cc3ccccc3)CC2)nc2c1c(=O)n(C)c(=O)n2C | / | 12 | -6 | -7 | / | -4 | -21 | 9
CCCCOc1ccc(C(=O)NCC(=O)N2CCN(C(=O)c3ccco3)CC2)cc1 | i | -7 | / | / | 7 | 0 | -2 | /
O=C(COC(=O)CNC(=O)c1ccccc1F)Nc1ccc2c(c1)OCO2 | / | -8 | / | 4 | 7 | 0 | 1 | /
CC1(C)C(N(O)C(=O)Nc2ccccc2)N(c2cccc(Cl)c2)C(=O)N1O (stereo not given) | / | -3 | -1 | -3 | / | 0 | 1 | -5
FC(F)(F)c1ccc(Oc2ccc3ccccc3c2Br)nc1 | i | / | 10 | / | 7 | -7 | -5 | 8
COc1ccc(C2=CC(=O)CCC2)cc1 | i | -5 | / | 3 | 4 | 3 | -2 | /
CC(C(=O)NCCSCc1cccc(Cl)c1)N(c1ccccc1)S(C)(=O)=O (stereo not given) | i | 9 | 4 | 16 | 15 | 2 | -1 | -11
CN1CCC(=NNC(=O)C(=O)NCc2ccccc2)CC1 | i | -4 | -9 | -4 | / | 2 | 3 | -10
OC[C@H]1OC(O)[C@@H](O)[C@@H](O)[C@@H]1O (stereo not given in full) | i | -1 | / | -17 | -25 | -1 | -3 | /
CCN(CC)C(=O)Cc1c(O)c2ccccc2[nH]c1=O | i | 1 | 14 | -23 | -7 | -3 | 1 | -3
C=CCn1c(SCC(=O)NC(=O)NC2CCCC2)nnc1C1CCCCC1 | i | 32 | -11 | -12 | -13 | -1 | -1 | -7
CC(C)Cc1nnc(NC(=O)CCC(=O)N2CCN(c3ccccc3F)CC2)s1 | i | -20 | -2 | -5 | -2 | -1 | -2 | 0
CCCS(=O)(=O)c1c(S(=O)(=O)CCC)c2ccc(C(N)=O)cn2c1C(=O)c1ccc(F)cc1 | i | 7 | 3 | -9 | 19 | 5 | 3 | 7
Cc1cc(=O)oc2c(C)c(OCC(=O)NCCc3ccc(S(N)(=O)=O)cc3)ccc12 | i | 5 | -2 | -10 | -6 | -2 | 2 | -6
Cc1noc(C)c1C(=O)Nc1ccc(F)cc1F | i | 4 | -5 | 0 | / | -11 | -1 | 1
O=C(NCc1nc2ccccc2[nH]1)C1=C[C@H](C2CCCCC2)C[C@H](OCc2ccc(CO)cc2)O1 | i | 21 | -7 | -13 | 7 | -8 | -18 | -13
COc1cccc(C2CC(c3ccc(Br)cc3)=NN2C(=O)c2ccncc2)c1OC (stereo not given) | + | 28 | 3 | / | 16 | 2 | -11 | 3
NC(=O)COC(=O)c1ccc(Cl)c(S(=O)(=O)N2CCCCCC2)c1 | i | -4 | 0 | -13 | 4 | 1 | -1 | -5
Clc1cccc(-c2ccc(/C=N/n3cnnc3)o2)c1 | i | -6 | 2 | -21 | 6 | 2 | -2 | 4
CC1=C(C(=O)Nc2ccccc2)C(c2ccc(C(C)C)cc2)N2C(=O)CSC2=N1 (stereo not given) | i | -6 | 1 | -3 | 13 | -10 | -11 | -6
N#CC1(NC(=O)CN2c3cccc4cccc(c34)S2(=O)=O)CCCCC1 | i | -7 | / | -9 | -9 | 4 | 4 | /
CC(C)CNC(=S)NC(=O)c1ccc(Cl)cc1 | i | -3 | 4 | / | -65 | 1 | -1 | -5
Brc1cccc(-c2nnc3sc(CN4CCC5(CC4)OCCO5)cn23)c1 | i | -8 | -4 | / | / | -6 | -5 | -5
Cc1nn(CC(=O)NC2C(=O)N3C(C(=O)O)=C(CSc4nnnn4C)CSC23)cc1Br (stereo not given) | i | -15 | -5 | / | -1 | -4 | 2 | 30
Cc1cc(C(=O)CN2C(=O)c3cccc(N)c3C2=O)c(C)n1Cc1cccs1 | i | -2 | 106 | -11 | / | -6 | -7 | 113 | eIF4H inh retest=-6;PABP FP inh retest=6
O=C(CCc1nc2ccccc2c(=O)[nH]1)Nc1ccc(F)cc1 | i | 11 | 7 | / | 1 | 1 | 0 | -3
O=C(Nc1nnc(C2=COCCO2)o1)c1cccc(F)c1 | i | 23 | 8 | -12 | 2 | 0 | 0 | -2

Looked up one by one from the list above, four records:
SMILES | Rce1 inh | CSC inhib | PABP FP inh | UUG fidelity | HIV Env fusion | MT1-MMP act inh | MT1-MMP act inh RFP | eIF4H inh | others
CC1=C(C(=O)Nc2ccccc2)C(c2ccc(C(C)C)cc2)N2C(=O)CSC2=N1 (stereo not given) | i | -6 | 1 | -3 | 13 | -10 | -11 | -6
O=C(Nc1nnc(C2=COCCO2)o1)c1cccc(F)c1 | i | 23 | 8 | -12 | 2 | 0 | 0 | -2
NC(=O)COC(=O)c1ccc(Cl)c(S(=O)(=O)N2CCCCCC2)c1 | i | -4 | 0 | -13 | 4 | 1 | -1 | -5
N#CC1(NC(=O)CN2c3cccc4cccc(c34)S2(=O)=O)CCCCC1 | i | -7 | / | -9 | -9 | 4 | 4 | /

(cont.)
SMILES | Rce1 inh | CSC inhib | PABP FP inh | UUG fidelity | HIV Env fusion | MT1-MMP act inh | MT1-MMP act inh RFP | eIF4H inh | others
CC(C)Cn1c(=O)c2c(nc3n2CCCN3CCc2ccccc2)n(C)c1=O | i | -19 | 1 | -1 | / | 2 | -7 | 5
CC1CN(C(=O)COC(=O)/C=C/c2ccc(C(F)(F)F)cc2)CC(C)O1 (stereo not given) | / | 8 | / | -4 | 9 | 1 | 2 | /
Cc1ccc(-c2noc(C3CCCN(C(=O)c4cccc(F)c4)C3)n2)cc1 (stereo not given) | i | 10 | -4 | 10 | 10 | 4 | -8 | -1
CC(C)(C)NC(=O)c1nc2nc(-c3ccccc3)cc(C(F)(F)F)n2n1 | i | -26 | -5 | 16 | 6 | 9 | 4 | 6
Cc1cccc(N2CN(Cc3ccco3)CNC2=S)c1C | i | -7 | 119 | -1 | -50 | 3 | 5 | -8 | eIF4H inh retest=-5;PABP FP inh retest=14
O=c1cc(-c2ccccc2)[nH]n1-c1nc2ccccc2[nH]1 | i | 112* | -6 | -27 | 40 | 22 | -1 | 3
CCOc1ccc(Nc2nc3c(c(=O)[nH]2)CCC3)cc1 | i | -5 | 5 | -5 | -23 | / | / | 2
C=CCOc1ccc(C=Nc2ccc(Cl)cc2)c(O)c1 | i | 19 | -1 | / | / | 1 | -1 | -4
Cc1ccc(C)c(NC(=S)NCc2ccc3[nH]c4c(c3c2)CCCC4)c1 | i | / | -4 | -27 | -278 | 0 | -6 | 5
N=C1C(=O)OCC1c1ccccc1NC(=O)CN1CCOCC1 (stereo not given) | i | -9 | 2 | -15 | / | 5 | 4 | -6
CCCCN(C)CCCNC(=O)c1cn(C)c2ccc(S(=O)(=O)N(C)C3CCCCC3)cc2c1=O | i | -3 | -3 | 9 | 12 | -5 | -5 | -4
CCCNC(=O)CN1C(=O)NC(c2ccccc2)(c2ccccc2)C1=O | i | 1 | 3 | -7 | -4 | 0 | 1 | 0
O=[N+]([O-])c1ccccc1S(=O)(=O)NCCSc1ccccc1 | i | 3 | -14 | -15 | 7 | -2 | -5 | 8
CCCC(=O)N(Cc1cc(=O)[nH]c2ccccc12)c1ccccc1C | i | -21 | 0 | -19 | -37 | -5 | -1 | 9
O=C(CN1CC[C@@]2(O)CCCC[C@H]2[C@@H]1c1ccc(F)cc1)NCc1ccco1 | i | 8 | 10 | / | -12 | -4 | 3 | 22
CCOc1ccc(NC(=S)N(CCOC)C2CCN(C(C)C)CC2)cc1 | i | -10 | 2 | -9 | 1 | 2 | 0 | 5
Cc1cccc(OCc2nc(C#N)c(NCc3ccc4c(c3)OCO4)o2)c1 | i | 60 | -2 | -17 | 24 | 4 | 1 | -4
Cc1ccc(C)c(-n2nnnc2SCC(=O)Nc2c(C)n(C)n(-c3ccccc3)c2=O)c1 | i | -7 | 4 | -7 | 20 | 0 | 0 | 1
O=C(Cc1csc(Nc2nc(=S)[nH]c3ccccc23)n1)NCc1ccc(Cl)cc1 | i | -4 | -11 | -10 | / | 1 | -4 | -3
O=C(CNC1=NCCC1)c1ccc2c(c1)OCCO2 | i | 3 | 1 | -19 | / | -2 | 6 | -2
COc1cc(C)cc(C(=O)C=Cc2ccccc2)c1O | / | / | / | -20 | -123 | 8 | -1 | /
O=C(N/N=C/c1ccco1)c1cc(-c2ccc(Cl)s2)[nH]n1 | i | 6 | -2 | / | -2 | 4 | 7 | 42
Cc1c(C)n(CCCN(C)C)c2ncnc(NC3CCCCC3)c12 | i | 31 | 14 | / | -12 | 1 | 0 | 10
COc1ccc(C(O)(C(=O)NNc2ccc(C)cc2)c2cccs2)cc1 (stereo not given) | i | / | -4 | -9 | 6 | 6 | -1 | -7
COc1cc(C(=O)N[C@H](C(=O)Nc2nnc(C3CC3)s2)C(C)C)cc(OC)c1OC | / | 0 | 4 | 13 | -5 | 5 | 4 | -4
Cc1occc1C(=O)N1CCCC(Nc2ccc(F)c(F)c2)C1 (stereo not given) | i | -4 | -12 | -3 | -24 | 0 | -1 | -3
CCC(=O)N1CC2(CC(c3cccc([N+](=O)[O-])c3)=NO2)C[C@H]1C(=O)NCC(N)=O (stereo not given in full) | i | 10 | 11 | -19 | -7 | 4 | 3 | -2
C=CCn1c(SCc2ccc(C#N)cc2)nnc1-c1ccccc1 | / | -9 | 1 | 1 | / | 2 | 3 | 0
O=C(NNc1nc2ccccc2s1)C1CC1 | i | -3 | -3 | 5 | / | 0 | 1 | -10
C=CCc1ccc(OCCCCOc2ccc(C(=O)O)cc2)c(OC)c1 | i | -13 | 2 | / | -7 | 5 | 1 | -1
Cc1ccc(Cn2c(C)c3cnn(CC(=O)NCCN4CCOCC4)c(=O)c3c2C)cc1 | / | / | / | -32 | 2 | -4 | 3 | /
Cc1nnc2sc(-c3ccc(N(C)C)cc3)nn2c1=O | i | / | 8 | -12 | -22 | 2 | 5 | 8
CCOC(=O)N1CCN(c2nc(C)c3c(n2)CCCC3=O)CC1 | i | -6 | -5 | 1 | -25 | 7 | 1 | 6
COC(=O)NNC(=O)c1cccc(C)c1 | i | -3 | -4 | -12 | / | -1 | 3 | -2
O=C(OCCCN=C1NS(=O)(=O)c2ccccc21)C1CC(=O)N(c2ccc(Cl)cc2)C1 (stereo not given) | i | -3 | -5 | 5 | 2 | 3 | -9 | 0
COc1ccc(CCNc2nc(-c3ccc(O)cc3)cs2)cc1OC | i | 17 | -5 | -36 | 16 | 9 | -9 | 5
CCOC(=O)CCCNC(=O)COC(=O)c1cccc(F)c1 | i | -10 | 1 | 3 | -3 | 7 | 5 | -2
COCc1cc(C)c(C#N)c(=S)[nH]1 | i | 22 | 4 | -9 | / | -6 | 5 | -7
CCN(Cc1ccccc1)C(=O)Cc1c[nH]c2ccccc12 | i | 0 | 7 | -5 | 2 | -4 | -2 | -8

Compound activity: PubChem, several laboratories

These rows are one share of the data (hit frequency here may not be typical).
